Ecoli growth: blocks Escherichia coli growth | 330,000 compounds, 0.21% hits | OD600, 23 h; hits give low values | OD600 absorbance (test concentration not listed);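 active means OD600 absorbance below the run mean of sample wells minus 3.6 SD, in any replicate, cut at about 0.56 in these data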;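 further: stock transfer was 300 nL into about 60 µL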
Beta2AR agonist: human beta-2 adrenergic receptor agonism by FAP; Am2.2-beta2AR cells, FAP receptor internalization, flow cytometry; reference of the scale not given here; 340,000 compounds, 0.43% hits; response, % (test concentration not listed);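 active means response above a set limit, near 3 SD of response in nonfluorescent compounds, cut at about 42% in these data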;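 further: stock transfer was 100 nL into about 11 µL; a reference agonist was the positive control; negative values mostly stem from fluorescent compounds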
rRNA inh HTS: inhibits bacterial ribosomal RNA function over humanized ribosomes | E. coli WT GFP vs humanized-ribosome RFP mutants, fluorescence, 24 h; hits give low values; DMSO median 0, no signal -100 | GFP signal change (wild-type ribosome), % (concentration not given with the values) | 350,000 compounds, 1.6% hits | AID 720706;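 active means significant combined selectivity score with lowered wild-type GFP, culture density cut under 30%, mutant RFP and density less affected; inactive means any of these conditions unmet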; further: one replicate is shown; some compounds called inactive have numbers as strong as hits
FGF22 binding: shifts melting point of recombinant human FGF22; Q9HCT0; recombinant FGF22 thermal shift, SYPRO orange fluorescence; percent of sucrose octasulfate shift, DMSO zero; calls only at 9.99 µM; 340,000 compounds, 1.5% hits; AID 651658;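 active means melting point raised past a set limit in the mean and every replicate; three in four hits are not shown here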
ALR inh: human ALR oxidase inhibition via reduced H2O2; 290,000 compounds, 3.8% hits; P55789; purified ALR, DTT oxidation, H2O2 HRP-luminol luminescence; inhibition, % (no concentration beside the values);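 active means mean and each replicate at 75% or more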;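 further: stock transfer was 7.5 nL into about 7.5 µL; 0% = neutral wells and 100% = wells with inactivated enzyme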
Target sequence (P55789 whole entry, looked up): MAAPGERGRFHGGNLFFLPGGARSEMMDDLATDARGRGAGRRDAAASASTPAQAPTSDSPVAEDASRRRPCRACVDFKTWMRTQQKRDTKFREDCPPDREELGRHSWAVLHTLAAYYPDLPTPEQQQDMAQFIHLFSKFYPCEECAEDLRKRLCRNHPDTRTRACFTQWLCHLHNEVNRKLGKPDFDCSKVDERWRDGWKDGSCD
UCH37 DUB inh: inhibitors of human deubiquitinating enzyme UCH37 | 330,000 compounds, 0.33% hits | purified proteasome/UCH37, Ub-AMC cleavage fluorescence | inhibition, % (concentration not given with the values);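 active means mean of two replicates above 20%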;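 further: 0% = compound-free wells with enzyme and 100% = wells lacking proteasome; stock transfer was 100 nL into about 20 µL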
Target sequence (Q9Y5K5 whole entry, looked up): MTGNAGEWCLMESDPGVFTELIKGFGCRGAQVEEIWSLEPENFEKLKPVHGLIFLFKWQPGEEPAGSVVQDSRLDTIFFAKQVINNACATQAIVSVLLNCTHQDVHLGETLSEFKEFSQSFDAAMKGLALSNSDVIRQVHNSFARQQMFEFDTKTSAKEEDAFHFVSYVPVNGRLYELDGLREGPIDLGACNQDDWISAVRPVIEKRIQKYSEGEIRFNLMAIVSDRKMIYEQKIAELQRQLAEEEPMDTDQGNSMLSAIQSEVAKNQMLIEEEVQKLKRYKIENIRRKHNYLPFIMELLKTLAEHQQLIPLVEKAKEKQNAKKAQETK
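Material: Human UCH37 enzyme supplied as purified proteasome complex | Schedule: 30 min compound-proteasome preincubation then 25 min substrate reaction, room temperature | Detection: AMC fluorescence from Ub-AMC cleavage, excitation 355 nm, emission 460 nm | Benchmarks: Wells without proteasome as full block, compound-free enzyme plus substrate as uninhibited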
HNF4A DNA FP: change in binding of human HNF4 alpha to DNA. P41235. HNF4a-FITC DNA binding, fluorescence polarization, 1 h. activity change, % at 10 µM. 360,000 compounds, 0.3% hits. AID 1224865; in the data active means activity change above about 30%, passing the limit was not always enough;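 further: controls were the assay level and a saturating level of protein; the project sought stronger binding though the title names inhibitors; some compounds called inactive have numbers as strong as hits; positive values seem to mean higher polarization but the record does not say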
Target sequence (P41235 whole entry, looked up): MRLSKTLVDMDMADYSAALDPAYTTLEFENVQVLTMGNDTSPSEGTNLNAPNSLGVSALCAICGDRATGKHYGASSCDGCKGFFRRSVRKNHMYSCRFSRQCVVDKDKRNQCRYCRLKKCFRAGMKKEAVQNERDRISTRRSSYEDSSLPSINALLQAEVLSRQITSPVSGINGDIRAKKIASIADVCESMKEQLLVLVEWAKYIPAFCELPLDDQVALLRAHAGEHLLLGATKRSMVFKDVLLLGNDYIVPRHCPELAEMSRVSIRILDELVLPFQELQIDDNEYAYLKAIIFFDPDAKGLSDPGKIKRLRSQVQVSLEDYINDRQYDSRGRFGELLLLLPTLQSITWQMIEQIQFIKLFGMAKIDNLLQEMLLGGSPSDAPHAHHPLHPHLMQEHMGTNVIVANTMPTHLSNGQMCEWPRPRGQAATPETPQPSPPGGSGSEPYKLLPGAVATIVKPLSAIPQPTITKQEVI
rRNA inh HTS OD600: also measured in rRNA inh HTS; calls as there; OD600 change, %; measured here: OD600 growth;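 optical density of the mix in the first replicate; 0 = DMSO median and -100 = no signal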
rRNA inh HTS RFP: second read-out of rRNA inh HTS, no call of its own (marks repeat the call); RFP signal change, %; measured here: RFP humanized mutant strains;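 first replicate; 0 = DMSO median and -100 = no signal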
An asterisk follows results filed as active; i = inactive; nt = not tested or not shown. These rows are one share of the data; the hit share may differ from the screen's.

SMILES	Ecoli growth	Beta2AR agonist	rRNA inh HTS	rRNA inh HTS OD600	rRNA inh HTS RFP	FGF22 binding	ALR inh	UCH37 DUB inh	HNF4A DNA FP
CCOc1ccc(NC(C)C(=O)N/N=C/c2cccs2)cc1 (stereo unspecified)	nt	0	nt	nt	nt	nt	40	nt	1.1
O=C(NCc1ccccn1)[C@H]1C[C@@H]1[C@H](NP(=O)(c1ccccc1)c1ccccc1)c1ccccc1	nt	-1	2	8	1.6	i	-5	1.0	0.5
CC(C)n1nc(C(=O)NNC(=O)c2ccncc2)c2ccccc2c1=O	0.69	-11	8	-1	2.2	i	3	4.4	-5.7
NC(=O)c1cc2cc([N+](=O)[O-])ccc2oc1=O	nt	5	9	3	0.7	i	-2	nt	2.0
COc1ccc2c(c1)-c1ccccc1S(=O)(=O)N2C	0.7	-1	nt	nt	nt	nt	-23	3.5	1.6
CSc1nc(-c2ccc(C)cc2)[nH]c1S(=O)(=O)c1ccccc1	0.7	2	nt	nt	nt	nt	3	0.8	2.2
COc1ccc(C)cc1S(=O)(=O)N1CCC(C)CC1	0.68	4	nt	nt	nt	nt	-11	1.2	-2.5
COc1ccc2c(c1)C(c1ccc(C)o1)=NNC(c1cccnc1)=N2	0.71	-6	-1	-4	2.8	i	nt	3.9	2.3
Cc1ccc2c(CC(=O)Nc3ccc4nc(N5CCOCC5)sc4c3)coc2c1	nt	nt	0	-8	11	i	nt	nt	1.2
O=C(Nc1ccc(F)c(Cl)c1)C1Cc2c(-c3ccccc3Oc3ccccc3)ccnc2O1 (stereo unspecified)	nt	nt	10	21	2.1	i	nt	nt	0.6
CC(=O)Nc1ccc(S(=O)(=O)N2CCC(C(=O)NCc3ccncc3)CC2)cc1	0.67	0	6	10	-2.3	i	3	2.6	2.1
CCS(=O)(=O)C1=NN2C(=N)/C(=C\c3ccc(OCCOc4cccc(OC)c4)c(OC)c3)C(=O)N=C2S1	0.66	25	-9	-21	-1.1	nt	55	4.2	0.1
O=C(CCC(=O)N1CCN(S(=O)(=O)c2ccc3ccccc3c2)CC1)Nc1cc(Cl)cc(Cl)c1	0.7	-3	11	2	7.2	i	0	5.0	-6.2
C#CCSc1nsc(SCC#C)c1C#N	0.71	1	nt	nt	nt	nt	8	1.7	-15
Cc1ccc(S(=O)(=O)N2[C@@H](Cc3ccccc3)CO[C@H]2CC(=O)c2cccs2)cc1	nt	nt	8	12	1.6	i	nt	nt	-3.8
CCc1cccc(NC(=O)CCNS(=O)(=O)c2cc(Br)cnc2N)c1	0.69	-15	3	10	-3.3	i	-2	2.0	-1.6
CC[C@H]1OC(=O)[C@H](C)[C@@H](O[C@H]2C[C@@](C)(OC)[C@@H](O)[C@H](C)O2)[C@H](C)[C@@H](O[C@@H]2O[C@H](C)C[C@H](N(C)C)[C@H]2O)[C@](C)(OC)C[C@@H](C)C(=O)[C@H](C)[C@@H](O)[C@]1(C)O	nt	3	nt	nt	nt	i	7	0.9	2.6
Cc1cccc(OCC(=O)N/N=C\c2cc3c(cc2[N+](=O)[O-])OCO3)c1C	nt	1	nt	nt	nt	nt	-7	nt	0.8
Cc1onc(-c2ccccc2Cl)c1C(=O)Nc1nnc(-c2ccc(F)cc2)s1	0.68	-4	-29	-60	-4.3	i	7	-1.1	1.7
O=C(CCNc1ccc(Cl)c(C(F)(F)F)c1)c1ccco1	0.69	13	nt	nt	nt	nt	4	4.8	-4.3
COC(=O)c1ccc(C(NC(=O)OCc2ccccc2)/C(C)=C/[C@@H](C)C(=O)NCc2ccc(OC)c(OC)c2)cc1 (stereo partly specified)	nt	6	nt	nt	nt	nt	-2	1.6	-1.0
O=S(=O)(Nc1cccc(CCc2ccccn2)c1)c1ccc2ccccc2c1	0.69	-8	nt	nt	nt	nt	nt	2.0	-0.5
Cc1cc(C(=O)COc2ccccc2C(N)=O)c(C)n1CC1CCCO1 (stereo unspecified)	0.76	-3	-12	4	4.2	nt	15	2.2	2.0
CCCCNC1C(CC)C(CCC)C(C#N)(C#N)C1(C#N)C#N (stereo unspecified)	0.72	21	nt	nt	nt	nt	2	-2.8	3.3
CCn1c(C(=O)N2CCc3ccccc3C2)cc2oc3ccccc3c21	0.75	-5	nt	nt	nt	nt	-18	1.1	2.3
COc1ccc(N2CCN(C(CNC(=O)OCc3ccccc3)c3ccco3)CC2)cc1 (stereo unspecified)	0.7	5	-3	-6	-0.8	i	70	-13	-0.5
COC(=O)[C@]1(C)N[C@H](CN(C)C(=O)Nc2ccc(C(F)(F)F)cc2)[C@@H]2C(=O)N(C)C(=O)[C@@H]21	0.7	-3	1	13	-1.0	i	-4	2.0	0.3
CCOC(=O)c1c(NC(=O)COC(=O)CNC(=O)c2ccco2)sc(C)c1C	0.71	0	nt	nt	nt	nt	28	4.0	1.8
Cc1ccc(Oc2ncccc2N)c2c1CCC2	0.67	-4	-10	3	2.2	i	29	3.5	-2.7
O=C(OCCOc1ccccc1)c1n[nH]c2ccccc12	0.69	-5	-39	-35	-8.2	i	10	4.7	4.6
CC(C)(C)N(Cc1ccccc1)C(=O)CN1C(=O)NC2(CCCCCC2)C1=O	0.67	-4	16	10	0.3	i	-1	0.1	0.4
Cc1ccc(C(=O)OCC(=O)NC(=O)c2ccc(C(C)(C)C)cc2)c(O)c1	0.69	-4	2	10	-2.8	i	-9	-4.8	0.1
NC(=O)c1cc(S(=O)(=O)N2CCc3ccccc3C2)cs1	0.68	8	7	5	0.1	i	-2	1.2	-1.8
COc1cc2c(cc1OC)-c1cc(N3CCCCCC3)nc(=O)n1CC2	0.68	-10	nt	nt	nt	nt	nt	-65	9.5
Cc1c(NC(=O)COC(=O)c2ccc(Cl)nc2)c(=O)n(-c2ccccc2)n1C	0.65	-5	6	7	0.5	nt	-5	-1.3	8.2
COc1ccc(CNC(=O)Nc2nc(C(N)c3ccccc3)cs2)cc1 (stereo unspecified)	nt	nt	-1	-1	0.4	i	nt	nt	1.0
COc1ccc(/C=C(\NC(=O)c2cccs2)C(=O)NCc2ccco2)cc1OC	0.71	6	1	1	0.7	i	-1	11	2.0
COCCNC(=O)CN(C(=O)CCC(=O)Nc1ccccn1)c1ccc(C)c(C)c1	0.71	-4	17	13	7.2	i	nt	3.4	-0.4
OC(CNC1CCCC1)COc1ccccc1Br (stereo unspecified)	0.66	-7	-2	-7	-0.4	i	-3	0.2	-4.1
COc1ccc(OC)c(CCNC(=O)CCc2nnc3ccc(N4CCOCC4)nn23)c1	0.7	0	7	8	-1.3	i	-1	4.4	1.8
O=C(CCc1ccccc1)N1CCN(C(=O)CCc2ccccc2)CC1	0.64	3	-1	-8	1.7	i	nt	0.0	2.1
Cc1cc(F)ccc1C(O)c1ncc(-c2ccc3ccccc3c2)[nH]1 (stereo unspecified)	nt	nt	-33	-52	-9.7	i	nt	nt	-0.6
CN1CCC(C(=O)N2CCCC(C(=O)c3ccc4c5c(cccc35)CC4)C2)CC1 (stereo unspecified)	0.68	21	-4	-6	-0.8	i	-15	-106	5.5
Nn1c(Cc2cccc3ccccc23)nnc1SCc1c(Cl)cccc1Cl	0.67	1	nt	nt	nt	nt	-13	1.2	-1.7
Brc1ccc(-n2cccc2/C=N/n2cnnc2)cc1	nt	-7	nt	nt	nt	nt	-1	nt	5.4
O=C(c1cccc(NS(=O)(=O)c2ccc(Br)cc2)c1)N1CCN(c2ccccc2O)CC1	0.69	4	0	-23	1.4	i	nt	2.9	-3.3
Cc1cc(NC(=O)NC2CCCN2S(=O)(=O)c2ccc(Cl)cc2)no1 (stereo unspecified)	0.75	1	nt	nt	nt	nt	-2	3.4	-1.0
COc1ccc2c(c1)C(=O)N(c1ccccc1OC)C(=O)C2(C)C	0.7	-2	nt	nt	nt	nt	2	0.1	-0.6
CCN(c1ccccc1)S(=O)(=O)c1ccc(Cl)c(C(=O)NCCc2ccc(OC)cc2)c1	0.7	-5	nt	nt	nt	nt	nt	5.1	1.0
CN1CCS/C1=C/C=C1\SC(=S)N(CC(=O)O)C1=O	0.71	5	31	17	5.7	i	73	38*	171
Cn1cnnc1SCC(=O)Nc1ccc(OC(F)F)cc1	0.71	-3	11	4	3.2	i	-4	0.5	-2.5
COc1ccc(CCn2c(SCCN3CCCCC3)nc3ccccc3c2=O)cc1OC	0.64	-5	-10	1	3.7	i	-7	2.1	3.9
CC(C)(C)Cc1cc(N)on1	0.68	-6	nt	nt	nt	nt	nt	1.0	2.2
CCN(CCNC(=O)C1CCN(S(=O)(=O)c2cccc3nsnc23)CC1)c1ccccc1	0.69	9	nt	nt	nt	nt	99*	3.1	-1.6
COc1cc(NCc2ccccc2)c2ncn(Cc3ccccc3)c2c1	0.67	16	-6	-16	17	nt	42	-0.7	-4.6
Cc1ccc(NC(=O)N2CCCCCC2)c(C)c1	0.75	-3	7	10	-1.8	i	-10	0.2	0.8
C[C@@H](NC(=O)Cn1ccc(NC(=O)OCc2ccccc2)nc1=O)c1cccc2ccccc12	0.75	2	-16	-10	27	i	-6	2.6	3.3
CCOc1ccc(OCCCN(C)C)cc1	0.67	3	nt	nt	nt	nt	-11	1.3	0.8
Oc1ccc(/C=N/NC(=S)Nc2cccnc2)cc1O	nt	-9	-1	4	-7.5	i	99*	nt	-1.6
O=C(CSc1n[nH]c(-c2ccc(S(=O)(=O)N3CCCCC3)cc2)n1)Nc1nccs1	0.72	-5	nt	nt	nt	nt	1	-4.8	-0.2

Of the compounds above, these have an NH in an aromatic ring:
SMILES	Ecoli growth	Beta2AR agonist	rRNA inh HTS	rRNA inh HTS OD600	rRNA inh HTS RFP	FGF22 binding	ALR inh	UCH37 DUB inh	HNF4A DNA FP
CSc1nc(-c2ccc(C)cc2)[nH]c1S(=O)(=O)c1ccccc1	0.7	2	nt	nt	nt	nt	3	0.8	2.2
O=C(OCCOc1ccccc1)c1n[nH]c2ccccc12	0.69	-5	-39	-35	-8.2	i	10	4.7	4.6
Cc1cc(F)ccc1C(O)c1ncc(-c2ccc3ccccc3c2)[nH]1 (stereo unspecified)	nt	nt	-33	-52	-9.7	i	nt	nt	-0.6
O=C(CSc1n[nH]c(-c2ccc(S(=O)(=O)N3CCCCC3)cc2)n1)Nc1nccs1	0.72	-5	nt	nt	nt	nt	1	-4.8	-0.2

Next entries follow.
SMILES	Ecoli growth	Beta2AR agonist	rRNA inh HTS	rRNA inh HTS OD600	rRNA inh HTS RFP	FGF22 binding	ALR inh	UCH37 DUB inh	HNF4A DNA FP
O=S1(=O)c2c(F)cccc2OC(COCc2ccccc2)CN1C1CCCC1 (stereo unspecified)	nt	2	3	0	-3.6	i	nt	nt	4.1
CCCCCn1c(=NC(=O)c2cccnc2)c(C#N)cc2c(=O)n3cccc(C)c3nc21	0.71	-6	-2	5	-1.2	i	-8	-176	-0.7
C=CCSC(=S)NC1CCS(=O)(=O)C1 (stereo unspecified)	0.5*	16	-13	2	6.7	i	nt	0.9	0.6
Cc1cc(Cl)c2oc(C(=O)N3CCN(c4cnccn4)CC3)c(C)c2c1	nt	nt	2	-2	0.0	i	nt	nt	4.2

Quoted at random: two records from the list
SMILES	Ecoli growth	Beta2AR agonist	rRNA inh HTS	rRNA inh HTS OD600	rRNA inh HTS RFP	FGF22 binding	ALR inh	UCH37 DUB inh	HNF4A DNA FP
Cc1cc(Cl)c2oc(C(=O)N3CCN(c4cnccn4)CC3)c(C)c2c1	nt	nt	2	-2	0.0	i	nt	nt	4.2
C=CCSC(=S)NC1CCS(=O)(=O)C1 (stereo unspecified)	0.5*	16	-13	2	6.7	i	nt	0.9	0.6

High-throughput results as filed in PubChem.
